Screening data deposited in PubChem by National Center for Advancing Translational Sciences (NCATS).
HPGD block: qHTS Assay for Inhibitors of HPGD (15-Hydroxyprostaglandin Dehydrogenase); 15-hydroxyprostaglandin dehydrogenase [NAD(+)] (Homo sapiens), P15428; purified HPGD, NADH fluorescence kinetic, PGE2 substrate; Potency, µM, for inactives: top-dose activity change, negative = inhibition, hits mostly inhibitors; hit rate 4.3% among 150,000; active = well fitted inhibition curve with a large enough effect (not every such curve was filed as active); inconclusive = small, poorly fitted or top-dose-only effect, or another doubt; inactive = no such curve, though single readings can be large or run the other way;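 note: top concentration of the series not given in the record; plate controls included wells without enzyme; inactives centre near -10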
Target sequence (P15428 whole entry, looked up): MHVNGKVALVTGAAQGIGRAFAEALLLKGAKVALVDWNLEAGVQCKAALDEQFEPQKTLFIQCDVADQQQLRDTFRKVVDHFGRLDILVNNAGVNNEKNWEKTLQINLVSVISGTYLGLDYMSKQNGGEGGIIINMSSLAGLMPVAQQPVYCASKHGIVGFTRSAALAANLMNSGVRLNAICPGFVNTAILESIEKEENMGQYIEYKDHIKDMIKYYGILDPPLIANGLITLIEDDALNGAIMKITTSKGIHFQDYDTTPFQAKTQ
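20 nM HPGD preincubated 15 min at room temperature with compound in 50 mM Tris-HCl pH 8, 0.01% Tween 20. Started with 1 mM NAD+ and 30 uM prostaglandin E2; NADH fluorescence (360/450 nm) read 5 times over 30-s intervals, last minus first.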
An asterisk follows results filed as active; ? = inconclusive. % is set by controls: 0 for no effect and ±100 for the full control effect; potency is the fitted concentration of half-maximal effect.

SMILES	HPGD block
O=C(NC1CCCCC1NC(=O)c1cccs1)c1cccs1 (stereo not drawn)	-8.4%
CCCCn1c2nc3ccccc3nc2c2c(=O)n(CCC)cnc21	?
CCN(CC)CCN1C(=O)C(=O)/C(=C(/O)c2c(C)[nH]c(C(=O)OC)c2C)C1c1ccco1 (stereo not drawn)	-11.1%
CCC(=O)NC(c1ccccc1Cl)c1c(O)ccc2ccccc12 (stereo not drawn)	-24.2%
Nn1c(SCc2nc3ccccc3[nH]2)nnc1-c1cccnc1	-7.5%
COc1ccc(C(=O)Cc2ccc(OC)c(OC)c2)cc1	-8.9%
CC(C)c1cccc(C(C)C)c1NC(=O)COC(=O)c1ccc2c(c1)S(=O)(=O)c1ccccc1C2=O	-5.9%
Cn1c(CNS(=O)(=O)c2ccc(Br)cc2)n[nH]c1=S	-2.7%
O=C(COC(=O)c1cc(-c2ccco2)nc2ccccc12)NCc1ccc2c(c1)OCO2	?
COc1ccc(NC(=O)c2cccc(-n3c(C)ccc3C)c2)c(OC)c1	-7.3%
Cc1ccc(C(=O)COC(=O)C2CC(=O)N(c3nc(-c4ccccc4)cs3)C2)cc1C (stereo not drawn)	-7.7%
Oc1cccc(Nc2nc(NCC3CCCO3)c3ccccc3n2)c1 (stereo not drawn)	-7.1%
CN1CCN(S(=O)(=O)c2ccc(N3CCN(S(=O)(=O)c4cccs4)CC3)nc2)CC1	-10.5%
CCOC(=O)CC(=O)Nc1nnc(C(C)C)s1	-7.8%
Cc1ccccc1N1C(=O)C2ON(c3ccccc3)C(c3cccnc3)C2C1=O (stereo not drawn)	-7.9%
CCC(c1nnc(SCC(=O)NCCc2ccc(Cl)cc2Cl)o1)N(C)C (stereo not drawn)	14.1µM*
CCOc1ccc(OCC)c(NC(=O)CSc2nnnn2CC)c1	-18.4%
CCOCCCNC(=S)N(Cc1ccccc1)Cc1nc2ccccc2c(=O)[nH]1	?
Cc1ccc2[nH]c(=O)c(CN(Cc3cccs3)Cc3nnnn3CC3CCCO3)cc2c1 (stereo not drawn)	-12.0%
CCN(CC)S(=O)(=O)c1cccc(C(=O)Nc2ccc(Cl)cn2)c1	0.6%
Cc1cc(=O)oc2cc(NC(=O)C3COc4ccccc4O3)ccc12 (stereo not drawn)	?
COc1ccc(NC(=O)C2CCCCN2S(=O)(=O)c2ccc(F)cc2)cc1 (stereo not drawn)	-11.6%
Cc1ccc(C(=O)N2CCN3C(=O)c4ccccc4C23c2ccc(Cl)cc2)cc1 (stereo not drawn)	-10.5%
Nc1c(NC(=O)CC[n+]2ccccc2)cccc1[N+](=O)[O-]	-12.0%
Cc1ccc(-n2ccc(=O)c(-c3ccnc(SCc4cccc(Cl)c4)n3)n2)cc1	?
O=C1N/C(=N\N=C\c2cccs2)SC1Cc1ccc(Cl)cc1 (stereo not drawn)	-9.7%
CC(C)OCCCNC(=O)c1ccccc1Oc1ccccc1	-9.9%
O=C(N/N=C/c1c(O)n(-c2ccccc2Cl)c(=O)c2ccccc12)C1COc2ccccc2O1 (stereo not drawn)	?
CCCc1cc(-c2[nH]ncc2-c2ccc3c(c2)OCCCO3)c(O)cc1O	-19.2%
Cc1n[nH]c(=O)nc1NCc1ccccc1Cl	-18.5%

Some of the entries above in another layout:
> CCC(c1nnc(SCC(=O)NCCc2ccc(Cl)cc2Cl)o1)N(C)C (stereo not drawn)
- HPGD block = 14.1µM*

> CCOc1ccc(OCC)c(NC(=O)CSc2nnnn2CC)c1
- HPGD block = -18.4%

Next section.
SMILES	HPGD block
CCC(=O)NCCc1cc2cc(C)c(C)cc2[nH]c1=O	?
CCOC(=O)C(NC(=O)c1ccc(OC)cc1)(N1CCCC1=O)C(F)(F)F (stereo not drawn)	2.2%
CCCCC1=CC2=C(OC(C)=O)C(=O)C(C)(OC(=O)C3CCCC3)C(=O)C2=CO1 (stereo not drawn)	-20.9%
Fc1ccc(CSc2ncnc3scc(-c4ccccc4)c23)cc1	-15.2%
COc1cc(/C=N/NC(=S)NCc2ccco2)cc(OC)c1OC	-19.1%
CCN(C(=O)c1coc(=O)c2ccccc12)c1cc(OC)ccc1OC	-17.6%
Cc1cc(C)n(CC(=O)n2c(C)c(C)c3ccccc32)n1	-13.4%
CCOC(=O)c1c(N)sc(C(=O)N(C)C)c1CN1CCOCC1	-10.6%
CC(=O)[C@@H](C)CCO[C@@]1(C)OCC[C@@H]1C	-0.7%
CCNC(=O)CC1SC(=Nc2ccccc2C)N(C)C1=O (stereo not drawn)	1.4%
CCN(CC)C(=O)Oc1ccc2c(=O)c(-c3ccc(OC)cc3)coc2c1	-7.0%
CCOC(=O)CSc1ccc(-c2nc3ccccc3[nH]2)cn1	-25.1%
COc1ccccc1N1CCN(C(=O)C(OC(C)=O)c2ccccc2)CC1 (stereo not drawn)	-3.5%
CCOC(=O)/C(=C/c1ccc(OC)cc1)NC(=O)c1ccco1	-13.2%
COc1ccc(N2CC(C(=O)Nc3nnc(SCc4ccccn4)s3)CC2=O)cc1 (stereo not drawn)	-29.6%

Sorted by SMILES length (highest first): some entries from above
SMILES	HPGD block
CC(=O)[C@@H](C)CCO[C@@]1(C)OCC[C@@H]1C	-0.7%
CCOC(=O)CSc1ccc(-c2nc3ccccc3[nH]2)cn1	-25.1%
CCNC(=O)CC1SC(=Nc2ccccc2C)N(C)C1=O (stereo not drawn)	1.4%

Additional compounds.
SMILES	HPGD block
Cc1cccc(-c2noc(CCc3ccccc3)n2)c1	-8.3%
Cn1c(SCC(=O)N2c3ccccc3Sc3ccccc32)nc2ccccc21	-2.5%
COc1ccc(/C=C/C(=O)N(CC(C)C)CC(C)C)cc1Br	-6.0%
Cc1cc(-c2ccccc2C(=O)NCc2ccccc2)on1	-5.2%
O=C(NNC(=O)C1CC1c1ccccc1)c1ccccc1[N+](=O)[O-] (stereo not drawn)	-5.9%
O=C(NCC1(c2ccccc2)CCCC1)C(=O)NCC1(c2ccccc2)CCCC1	-5.6%
Cc1ccc(NC(=S)NNc2ccc([N+](=O)[O-])cc2S(=O)(=O)Nc2ccccc2C(=O)O)cc1C	?
Cc1ccccc1OCC(=O)N1CCCc2ccccc21	-13.2%
CC(OCCN1CCCC1)(c1ccc(F)cc1)c1ccc(F)cc1	2.5%
COc1ccccc1C(=O)N1CCN(c2cccc(C(F)(F)F)c2)CC1	-13.1%
Cn1c(Cl)c(C(=O)Nc2ccccc2)c2ccccc21	-3.3%
Cc1cc2ccccc2c(=O)n1CC(=O)Nc1ccc2c(c1)OCO2	-2.1%
COC(=O)[C@H](Cc1ccccc1)NC(=O)N1CC(C)OC(C)C1 (stereo partly drawn)	-3.2%
CC(C)OCCCNC(=O)C(=O)NCCCOC(C)C	-0.6%
CC[C@@H]1OC(=O)[C@H](C)[C@H](O[C@@H]2C[C@](C)(OC)[C@H](O)[C@H](C)O2)[C@H](C)[C@H](O[C@@H]2O[C@@H](C)C[C@@H](N(C)C)[C@@H]2O)[C@](C)(O)C[C@H](C)C(=O)[C@H](C)[C@H](O)[C@]1(C)O	-1.4%

Three of the compounds above, with the structure last.
HPGD block	SMILES
-6.0%	COc1ccc(/C=C/C(=O)N(CC(C)C)CC(C)C)cc1Br
-5.2%	Cc1cc(-c2ccccc2C(=O)NCc2ccccc2)on1
-5.9%	O=C(NNC(=O)C1CC1c1ccccc1)c1ccccc1[N+](=O)[O-] (stereo not drawn)

More results follow:
SMILES	HPGD block
O=C(NCCN1C(=O)CSC1=O)c1ccccc1	-11.5%
Cc1cc(NC(=O)CSc2nc3sc4c(c3c(=O)n2C)CCCC4)no1	-10.5%
CC(=Nc1ccccc1)Nc1ccccc1	-7.3%
CC(C)(C)NC(=O)C(=O)NNC(=O)C12CC3CC(CC(C3)C1)C2	-1.1%
Cc1cc(N=Cc2c(O)n(-c3ccc(C)c(C)c3)c(=O)c3ccccc23)no1	-16.3%
CCc1ccc(OCCCC(=O)O)c(Br)c1	-29.2%
O=C(Nc1ccccc1C(=O)NCc1ccco1)NC1CCCCC1	-9.4%
Cc1ccc(S(=O)(=O)Oc2ccc(/C=N/NC(=O)c3nn(C)cc3[N+](=O)[O-])cc2)cc1	-28.0%
CC(C)(C)C(=O)CC(=O)Nc1ccc(Cl)c(N)c1	-13.1%
CCSc1nnc(NC(=O)CN(C)S(=O)(=O)c2ccc(F)cc2)s1	?
CCOC(=O)C(NC(=O)c1cccnc1)(Nc1cccc(C)n1)C(F)(F)F (stereo not drawn)	1.3%
COc1ccccc1N/N=C/c1c(CO)cnc(C)c1O	-14.0%
CC(Cc1ccccc1)NC(=O)/C=C/c1ccc([N+](=O)[O-])cc1 (stereo not drawn)	-4.2%
CCc1cccc(NC(=O)CCSCCC(=O)Nc2cccc(CC)c2)c1	-12.2%
COc1ccc(CNC(=O)C2CC(=O)N(c3ccc(OCC(=O)N4CCCCC4)cc3)C2)cc1 (stereo not drawn)	14.1µM*
COc1ccc(C(=O)Nc2ccc(C(=O)Nc3nccs3)cc2)cc1[N+](=O)[O-]	-12.1%
Cc1ccc(NC(=O)COC(=O)Cn2c(C)csc2=O)cc1	-7.2%
Cc1cc(NC(=O)CSc2nc(C3CCCCC3)nc3ccccc23)no1	-4.2%
O=C(CCc1ccc(Oc2cc([N+](=O)[O-])cc([N+](=O)[O-])c2)cc1)NC1CCCC1	15.8µM*
COC1C=CO[C@@]2(C)Oc3c(C)c(O)c4c(O)c(c(C=NN5CCN(C)CC5)c(O)c4c3C2=O)NC(=O)/C(C)=C\C=CC(C)C(O)[C@@H](C)C(O)C(C)[C@H](OC(C)=O)C1C (stereo partly drawn)	-12.6%
Cc1cc(C)cc(OCC(=O)NCCN2CCOCC2)c1	-7.9%
CCCCOC(=O)n1ccc(C(=O)Nc2ccccc2OC)n1	-5.6%
CC(C)OC(=O)c1nn2c(C(F)(F)F)cc(-c3ccco3)nc2c1Cl	-18.0%
Cc1cccc(-n2c(O)c(C=Nc3c(C)n(C)n(-c4ccccc4)c3=O)c3ccccc3c2=O)n1	-0.5%
CCCCNC(=S)NCc1ccc2c(c1)cc(C)n2C	-9.1%
CC1(C)C(c2ccccc2)=[N+]([O-])C2(CCCCC2=O)N1O (stereo not drawn)	4.0%
Cc1ccccc1C(=O)c1cccn1CC(=O)NCc1ccc2c(c1)OCO2	-10.9%
Cc1cc(C)n(-c2nnc(C)n2NS(=O)(=O)c2ccc(F)cc2)n1	1.5%
C=CCn1c(SCC(=O)NCc2ccc3c(c2)OCO3)nc2scc(-c3ccc(F)cc3)c2c1=O	-12.2%
O=C(COc1ccccc1)NCc1cccs1	-26.2%

Looked up above.
Entry for `Cc1ccccc1C(=O)c1cccn1CC(=O)NCc1ccc2c(c1)OCO2` in HPGD block: -10.9%
Entry for `CCCCOC(=O)n1ccc(C(=O)Nc2ccccc2OC)n1` in HPGD block: -5.6%
Entry for `O=C(COc1ccccc1)NCc1cccs1` in HPGD block: -26.2%

(further entries)
SMILES	HPGD block
CCOC(=O)C1(CCSC)NC(c2ccco2)C2C(=O)N(C)C(=O)C21 (stereo not drawn)	-8.1%
CCN(CC)CCOC(=O)CCc1cccc2ccccc12	-12.5%
O=C(NCC(c1cccs1)N1CCOCC1)c1ccc(Cl)s1 (stereo not drawn)	-8.6%
Cc1noc(COc2ccccc2OCc2onc(C)c2Cl)c1Cl	-10.6%
CCC(=O)Nc1cccc(-c2csc(-c3ccccc3)n2)c1	-7.0%
Cc1ccc(CC(=O)N/N=C/c2ccc(OC(=O)c3ccc([N+](=O)[O-])cc3)cc2)cc1	1.4%
Cc1cccc(N(CC(=O)Nc2c(C)n(C)n(-c3ccccc3)c2=O)S(C)(=O)=O)c1C	7.1%
O=C(c1ccc2c(c1)N(Cc1ccccc1)CCS2)N1CCCCC1	?
COc1cccc(NC(=O)CC(c2ccc(OC(C)C)cc2)c2ccccc2OC)c1 (stereo not drawn)	-3.0%
CCOC(=O)c1sc(NC(=O)c2cccs2)cc1C	?
CCCC1c2ccc(C)n2CCN1C(=O)Nc1ccccc1Cl (stereo not drawn)	-16.2%
CC(=O)[C@H](C(c1ccccc1)N1CCOCC1)N1CCOCC1 (stereo partly drawn)	-6.4%
O=C(COC(=O)c1cccs1)NCC1CCCO1 (stereo not drawn)	?
CN(C)c1ccc(/C=c2/sc3n(c2=O)NC2(c4ccccc4)N(C)C(=O)N(C)C2(c2ccccc2)N=3)cc1 (stereo not drawn)	-6.2%
O=c1c2c(n3cnnc3n1C1CCCCC1)-c1ccccc1CC21CCCCC1	-12.1%
CCN(CC)S(=O)(=O)c1ccc(-c2nnc(SCC(=O)N3c4ccccc4CC3C)o2)cc1 (stereo not drawn)	?
COc1ccc(OC(=O)c2cc3ccccc3o2)cc1	-18.7%
C=CCn1c(-c2cccc(Cl)c2)n[nH]c1=S	?
COCCN(CCOC)C(=O)c1sc2nc(-c3ccccc3)cn2c1C	-6.8%
O=C(NCCc1cccc(Cl)c1)c1cc([N+](=O)[O-])ccc1Cl	-18.9%
COc1ccc(NC(=O)C2CCCN(S(=O)(=O)c3c(C)n[nH]c3C)C2)c(OC)c1 (stereo not drawn)	-10.9%
COC(=O)CCCC1=CC2=C(c3ccccc3)C(=O)C(C)(OC(=O)C3CCCC3)C(=O)C2=CN1Cc1ccco1 (stereo not drawn)	-6.9%
COc1ccc(N2CCN(Cc3cc(=O)oc4ccc(Cl)cc34)CC2)cc1	-12.1%
Cc1ccccc1CSc1nc2c(c(=O)[nH]1)CCC2	3.55µM*
Clc1ccc(-n2ncc3c(N4CCCC4)ncnc32)cc1	?
CC(=O)OCC(=O)N1CCN(c2ccc([N+](=O)[O-])cc2)CC1	-8.1%
CCOC(=O)CNc1nc(OCC#N)nc(N2CCOCC2)n1	-11.1%
O=C(NC(NC(=S)N1CCOCC1)C(Cl)(Cl)Cl)c1cccc2ccccc12 (stereo not drawn)	5.1%
CCCc1cc(=O)[nH]c(SCC)n1	-9.5%
CN1CCN(CCCNC(=O)c2ccc(CS(=O)(=O)c3ccc(Br)cc3)o2)CC1	4.9%

Only part of the results is shown; count on the stated rates, not on these rows.
